From PubChem BioAssay
Sa growth 42C – S. aureus growth inhibition at 42 and 30 °C, primary screen, LtaS inhibitor project, RN4220, two temperatures; OD600, 20 h, 42 °C; stronger effect = lower value; relative growth, % (test concentration not listed); actives 0.53% (n = 170,000); AID 720641, 2013;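 active means growth at 42 °C up to 50% and 20 or more points under that at 30 °C, or under 10% at both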;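 further: 300 nL library stock went into each well; scaled to the means of positive and negative controls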
GIV-Gai inh – inhibitors of GIV peptide binding to Galpha-i3, primary screen, biochemical, fluorescence polarization, FITC-GIV GBA peptide, rat Galphai3; Guanine nucleotide-binding protein G(i) subunit alpha-3 (Rattus norvegicus), P08753; AID 1224905, 2016; 90 min; stronger effect = lower value; scaled: aluminum fluoride 0%, vehicle 100%; percent of control (FP), % (no concentration beside the values); actives 0.42% (n = 210,000);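 active means replicate mean at 85% of control or lower, very high polarization wells dropped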;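 further: wells of about 15 µL received 100 nL stock; the first replicate is given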
Target sequence (P08753 whole entry, looked up): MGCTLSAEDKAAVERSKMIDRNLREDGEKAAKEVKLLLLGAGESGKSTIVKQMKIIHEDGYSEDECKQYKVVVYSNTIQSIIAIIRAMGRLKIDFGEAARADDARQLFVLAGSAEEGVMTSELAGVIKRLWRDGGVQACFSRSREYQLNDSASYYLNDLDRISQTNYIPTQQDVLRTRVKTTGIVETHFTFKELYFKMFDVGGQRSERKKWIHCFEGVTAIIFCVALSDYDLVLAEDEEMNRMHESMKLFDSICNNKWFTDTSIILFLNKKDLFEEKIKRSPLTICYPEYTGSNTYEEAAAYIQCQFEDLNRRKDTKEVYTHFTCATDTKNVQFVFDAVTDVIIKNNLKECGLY
Sa growth 42C second temp – recorded beside Sa growth 42C, whose call it bears; relative growth, %; measured here: growth at 30 °C;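 optical density after 20 h as mean of two plates; 100% = untreated growth and lower means inhibition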
* = called active by the depositor; nt = no result given.

SMILES	Sa growth 42C	GIV-Gai inh	others
C=C1C[C@@H]2[C@H](CC[C@]3(C)C(=O)CC[C@@H]23)[C@@]2(C)C=CC(=O)C=C12	89	nt	Sa growth 42C second temp=91
CC1CCC[C@H](O)CCCCCc2cc(O)cc(O)c2C(=O)O1 (some centres undefined)	91	nt	Sa growth 42C second temp=81
CC[C@]1(O)CC[C@H]2[C@@H]3CCC4=CCCC[C@@H]4[C@H]3CC[C@@]21C	103	nt	Sa growth 42C second temp=99
CN1CC[C@@]23CCCC[C@@H]2[C@@H]1Cc1ccc(O)cc13	86	nt	Sa growth 42C second temp=80
CC12CC[C@H]3[C@@H](CCC4(O)C[C@H](O)CCC34/C=N\NC(=O)c3cccc(NC(=O)c4ccc(F)cc4)c3)C1(O)CCC2C1=CC(=O)OC1 (some centres undefined)	nt	105
O=[N+]([O-])c1ccc2c(c1)C1C(Cl)C(Sc3ccccc3[N+](=O)[O-])CC1C(c1ccc(Cl)cc1)N2 (centres undefined)	nt	120
O=C(c1ccc2c(=O)n(Cc3ccc4c(c3)OCO4)c(=S)[nH]c2c1)N1CCC2(CC1)OCCO2	nt	107
CC1(c2ccccc2)CCN2CCC(C)(c3ccccc3)c3cc([N+](=O)[O-])cc1c32 (centres undefined)	nt	108
CCOP(=O)(OCC)C(NC(=O)c1ccc(C)cc1)=C(Cl)Cl	nt	110
O=C(c1ccc2c(c1)ncn2-c1ccc(OCc2ccccc2)cc1)N1CCC2(CC1)OCCO2	nt	109
CNC1(c2nnnn2-c2cccc(Cl)c2)CCCCC1	nt	106
N#CC1=C(N)Oc2c(c(=O)oc3ccccc23)C1c1ccc(Br)s1 (centres undefined)	nt	109
O=C(CN1CCN(C(=O)COc2ccc(F)cc2)CC1)Nc1nnc(-c2ccccc2)s1	nt	101
CCOC(=O)C1=C(N)Oc2n[nH]c(C)c2C12C(=O)Nc1ccc(Br)cc12 (centres undefined)	nt	109
O=c1cccc2n1CC1CC2CN(C(=S)NC2CCCCC2)C1 (centres undefined)	nt	107
CCCCN(C(=O)c1ccc(F)cc1)C1=CC2CCC(C1)N2C (centres undefined)	nt	112
COc1cc(C2C(C#N)=C(N)Oc3c2c(=O)oc2ccccc32)cc(OC)c1O (centres undefined)	nt	102
Cc1cccc(C)c1NC(=O)c1cccn(Cc2cccc(F)c2)c1=O	nt	102
COc1cc([N+](=O)[O-])ccc1-n1c(/C=C/c2ccccc2)nc2ccccc2c1=O	nt	103
CC(=O)OC1(c2ccccc2)CC(C)(C)N(C)CC1C (centres undefined)	nt	98
O=P1(N2CCOCC2)C=C(c2ccccc2)c2c(c3ccccc3c3cc(Cl)ccc23)O1 (centres undefined)	nt	104
COc1ccc2c(c1)C1(CCN(S(=O)(=O)c3ccc4c(c3)CC(=O)N4C)C1)C(=O)N2C (centres undefined)	nt	101
NNc1ccc2nnnn2n1	nt	104
COc1cc(/C=C2\C(=O)NC(=O)N(c3ccccc3)C2=O)c([N+](=O)[O-])cc1OC	nt	111
O=C(Cc1ccccc1)N1CCN(Cc2cc(=O)n3nc(-c4ccccc4Cl)sc3n2)CC1	nt	104
More structures
SMILES	Sa growth 42C	GIV-Gai inh	others
CCCOP(=O)(OCCC)C(NC(=O)c1ccccc1)=C(Cl)Cl	nt	108
O=C(NC(=S)N1CC2CC(C1)c1cccc(=O)n1C2)c1ccc(Br)cc1 (centres undefined)	nt	109
Clc1cccc(-n2nnnc2C2(N3CCCCC3)CCCCC2)c1	nt	117
O=C1CN=C(c2ccccc2)c2cc(Br)ccc2N1	nt	117
CCn1c(C2CCCNC2)n[nH]c1=O (centres undefined)	nt	92
COc1ccc(C(=O)N2CCC3(C2)C(=O)N(C)c2ccc(OC)cc23)c(OC)c1 (centres undefined)	nt	105
O=C(O)c1cn(-c2ccccc2)c2cc(N3CCNCC3)c(F)cc2c1=O	nt	102
C=CCOC(=O)C1=C(C)OC(N)=C(C#N)C12C(=O)Nc1ccc(C)cc12 (centres undefined)	nt	122
Cc1cccc(NC(=O)N2CC3CC(C2)c2cccc(=O)n2C3)c1 (centres undefined)	nt	109
Cc1cc(Br)ccc1NC(=O)c1cccn(Cc2cccc(F)c2)c1=O	nt	105
CC(C)NC(=O)CCc1nc(C2=CCN(Cc3ccc(Cl)cc3)CC2)no1	nt	105
CCCS(=O)(=O)N1CCC2(C1)C(=O)N(C)c1ccc(OC)cc12 (centres undefined)	nt	107
CCOC(=O)C1=C(C)OC(N)=C(C(=O)OC(C)(C)C)C12C(=O)Nc1ccccc12 (centres undefined)	nt	107
O=[N+]([O-])c1ccccc1SC1CC2C(c3ccccc3F)Nc3ccc4ccccc4c3C2C1Cl (centres undefined)	nt	103
O=C(Nc1ccon1)c1cccn(Cc2ccc(Br)cc2)c1=O	nt	108
N#Cc1cc2c(nc1SCc1ccc([N+](=O)[O-])cc1)C1CCN2CC1	nt	105
COc1ccc(NC(=O)N2CCC3(C2)C(=O)N(C)c2ccc(OC)cc23)c(OC)c1 (centres undefined)	nt	108
Cc1cc(O)c2c3c(c(=O)oc2c1)CCCC3	nt	110
CCOc1cc(C2C(C#N)=C(N)Oc3c2c(=O)oc2ccccc32)cc([N+](=O)[O-])c1O (centres undefined)	nt	115
O=c1cccc2n1CC1CC2CN(CC(O)CSc2ccccc2)C1 (centres undefined)	nt	114
CCC1(C)CC(CCNCc2ccc(N(C)C)cc2)(c2ccc(F)cc2)CCO1 (centres undefined)	nt	107
CCOc1ccc(C(Nc2ccccc2)P2(=S)OCC(C)(C)CO2)cc1 (centres undefined)	nt	106
CC12CC[C@H]3[C@@H](CCC4(O)C[C@H](O)CCC34/C=N/NC(=O)c3ccccc3[N+](=O)[O-])C1(O)CCC2C1=CC(=O)OC1 (some centres undefined)	nt	102
CC(C)Cn1ccnc(N2CCN(C)CC2)c1=O	nt	113
COc1cccc(C2C(C#N)=C(N)Oc3c2c(=O)oc2ccccc32)c1OC(=O)c1ccco1 (centres undefined)	nt	104
Other structures.
SMILES	Sa growth 42C	GIV-Gai inh	others
Cc1ccc(C(O)(C(=O)NNc2cc(Cl)ccc2Cl)c2ccc(C)cc2)cc1	nt	107
CC(=O)OC1N=C(c2ccccc2)c2cc(C)ccc2NC1=O (centres undefined)	nt	113
O=C1CN=C(c2ccccc2)c2cc(Cl)ccc2N1	nt	110
COc1ccc(S(=O)(=O)N2CCC3(C2)C(=O)N(C)c2ccc(OC)cc23)cc1 (centres undefined)	nt	98
COc1ccc2c(c1)C1(CCN(S(=O)(=O)c3ccc(C)cc3)C1)C(=O)N2C (centres undefined)	nt	109
COc1ccc2c(c1)C1(CCN(S(=O)(=O)c3cc(OC)ccc3OC)C1)C(=O)N2 (centres undefined)	nt	110
Cc1cccc(-n2ncc3c(N4CC5CC(C4)c4cccc(=O)n4C5)ncnc32)c1 (centres undefined)	nt	105
CCOC(=O)C1=C(NC(=S)NC(=O)c2ccccc2)c2ccccc2CC12CCCC2	nt	107
Cc1ccc2nc(NC(=O)c3c(O)c4ccccc4n(CCC(C)C)c3=O)sc2c1	nt	109
COC(=O)c1ccc(C(=O)OC)c(NC(=O)c2cccn(Cc3cccc(F)c3)c2=O)c1	nt	103
CCCC1=C(C(=O)OCc2ccccc2)C2(C(=O)Nc3ccccc32)C(C(=O)OCC)=C(N)O1 (centres undefined)	nt	96
Cc1ccc2c(c1)C1CN(C)CCC1N2C(=O)C12CC3CC(CC(C3)C1)C2 (centres undefined)	nt	108
O=C(Nc1ccc2ccccc2c1)N1C[C@H]2C[C@@H](C1)c1cccc(=O)n1C2	nt	105
CCOC(=O)N(c1ccccc1)P1(=S)OCC(C)(C)CO1	nt	111
COC(=O)C1C(=O)N(C)C2(C)CC1c1cc(OC)ccc1O2 (centres undefined)	nt	110
COc1ccc(Br)cc1C1C(C#N)=C(N)Oc2c1c(=O)oc1ccccc21 (centres undefined)	nt	103
C#CCN1CCC2=C(C1)c1c(O)cc(C(C)CCCCc3ccc(F)cc3)cc1OC2(C)C (centres undefined)	nt	114
Cc1ccc2c(c1)C1CN(C)CCC1N2C(=O)CN1CCCC1 (centres undefined)	nt	109
O=C1/C(=C\c2ccc([N+](=O)[O-])cc2)N2CCC1CC2	nt	114
CCCCn1c(=O)c(C(=O)Nc2ccc(C)cc2Br)c(O)c2ccccc21	nt	104
Cc1ccccc1-n1nnnc1C1(N(C)O)CCCCC1	nt	110
COc1cccc(S(=O)(=O)N2CCC3(C2)C(=O)N(C)c2ccc(OC)cc23)c1 (centres undefined)	nt	97
O=C(Cc1c(Sc2ccc(F)cc2)[nH]c2ccccc12)N1CCN(Cc2ccccc2)CC1	nt	97
CC12CC[C@H]3[C@@H](CCC4(O)C[C@H](O)CCC34/C=N/NC(=O)c3ccc(O)cc3)C1(O)CCC2C1=CC(=O)OC1 (some centres undefined)	nt	99
O=C(Nc1ccc2c(c1)OCCO2)c1cccn(Cc2c(F)cccc2Cl)c1=O	nt	109

Arranged by length of the SMILES (smallest number first): part of the list above.
SMILES	Sa growth 42C	GIV-Gai inh	others
O=C1CN=C(c2ccccc2)c2cc(Cl)ccc2N1	nt	110
CCOC(=O)N(c1ccccc1)P1(=S)OCC(C)(C)CO1	nt	111
Cc1ccc2c(c1)C1CN(C)CCC1N2C(=O)CN1CCCC1 (centres undefined)	nt	109
COC(=O)C1C(=O)N(C)C2(C)CC1c1cc(OC)ccc1O2 (centres undefined)	nt	110
O=C1/C(=C\c2ccc([N+](=O)[O-])cc2)N2CCC1CC2	nt	114
CCCCn1c(=O)c(C(=O)Nc2ccc(C)cc2Br)c(O)c2ccccc21	nt	104
O=C(Nc1ccc2c(c1)OCCO2)c1cccn(Cc2c(F)cccc2Cl)c1=O	nt	109
Cc1ccc(C(O)(C(=O)NNc2cc(Cl)ccc2Cl)c2ccc(C)cc2)cc1	nt	107
Cc1ccc2c(c1)C1CN(C)CCC1N2C(=O)C12CC3CC(CC(C3)C1)C2 (centres undefined)	nt	108
CCOC(=O)C1=C(NC(=S)NC(=O)c2ccccc2)c2ccccc2CC12CCCC2	nt	107
Cc1cccc(-n2ncc3c(N4CC5CC(C4)c4cccc(=O)n4C5)ncnc32)c1 (centres undefined)	nt	105
COc1ccc(S(=O)(=O)N2CCC3(C2)C(=O)N(C)c2ccc(OC)cc23)cc1 (centres undefined)	nt	98
COc1ccc2c(c1)C1(CCN(S(=O)(=O)c3cc(OC)ccc3OC)C1)C(=O)N2 (centres undefined)	nt	110
O=C(Cc1c(Sc2ccc(F)cc2)[nH]c2ccccc12)N1CCN(Cc2ccccc2)CC1	nt	97
COC(=O)c1ccc(C(=O)OC)c(NC(=O)c2cccn(Cc3cccc(F)c3)c2=O)c1	nt	103
CCCC1=C(C(=O)OCc2ccccc2)C2(C(=O)Nc3ccccc32)C(C(=O)OCC)=C(N)O1 (centres undefined)	nt	96
CC12CC[C@H]3[C@@H](CCC4(O)C[C@H](O)CCC34/C=N/NC(=O)c3ccc(O)cc3)C1(O)CCC2C1=CC(=O)OC1 (some centres undefined)	nt	99

Other records
SMILES	Sa growth 42C	GIV-Gai inh	others
CCOC(=O)c1ccc(NC(=O)N2CC3CC(C2)c2cccc(=O)n2C3)cc1 (centres undefined)	nt	108
N#CC1=CN(c2ccc(F)cc2)c2ccc(F)cc2S1(=O)=O	nt	104
CN1CC=C(c2noc(CCC(=O)NCCN3CCN(c4ccccc4F)CC3)n2)CC1	nt	103
O=C(COc1ccccc1)N1CCN(Cc2noc(-c3ccccc3)n2)CC1	nt	104
CCOC(=O)C1=C(N)Oc2c(c(=O)oc3ccccc23)C1c1cc([N+](=O)[O-])cs1 (centres undefined)	nt	110
NC1(c2nnnn2-c2ccccc2)CCCCC1	nt	106
CCOCCn1cnc2sc(C(=O)N3CCC4(CC3)OCCO4)c(C)c2c1=O	nt	102
O=C(Cc1ccccc1)N1CCN(Cc2cc(=O)n3nc(-c4ccccc4F)sc3n2)CC1	nt	100
CCOC(=O)c1c(C)n(Cc2ccc(OC)c(OC)c2)c2c1cc(O)c1ccccc12	nt	101
CCCCCCCC(=O)N1c2ccc(C)cc2C2CN(C)CCC21 (centres undefined)	nt	106

Retrieved by compound from above (4):
SMILES	Sa growth 42C	GIV-Gai inh	others
O=C(NC(=S)N1CC2CC(C1)c1cccc(=O)n1C2)c1ccc(Br)cc1 (centres undefined)	nt	109
COc1ccc2c(c1)C1(CCN(S(=O)(=O)c3ccc4c(c3)CC(=O)N4C)C1)C(=O)N2C (centres undefined)	nt	101
COc1cc(C2C(C#N)=C(N)Oc3c2c(=O)oc2ccccc32)cc(OC)c1O (centres undefined)	nt	102
N#CC1=C(N)Oc2c(c(=O)oc3ccccc23)C1c1ccc(Br)s1 (centres undefined)	nt	109

The list is partial; count on the stated rates, not on these rows.
